High-throughput results (PubChem BioAssay)
Sfp PPTase inh: inhibitors of Bacillus subtilis Sfp phosphopantetheinyl transferase; 3.5% of 310,000 active; Potency, µM, without a hit: max response, negative = inhibition, usual class: inhibitors; AID 1490; Q9F4F7; Biochemical Sfp PPTase activity, qHTS; active = well fitted inhibition curve with a large enough effect; inconclusive = small, poorly fitted or top-dose-only effect, or another doubt; inactive = no such curve, though single readings can be large or run the other way;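 note: the enzyme is Sfp with the accession as filed and its product quenches rhodamine fluorescence; potency is the fitted concentration of half-maximal effect; 0% = enzyme reaction without inhibitor and -100% = no enzyme wells; top concentration of the series not given in the record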
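Fluorescence-quenching assay with 15 nM Sfp, 5 uM rhodamine-CoA and 12.5 uM BHQ-2-labelled ybbR peptide in pH 7.6 Hepes/MgCl2 buffer. Enzyme was pre-incubated with compound for 15 min at room temperature. Rate was taken from the 30-min fluorescence change (525/598 nm).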
Menin-MLL FL inh: menin-MLL binding inhibition, fluorescein peptide; FP activity change, % at 61.4 µM; 290,000 tested, under 10 active; Fluorescence polarization, fluorescein-MLL peptide displacement from menin; inconclusive = falling polarisation curve, or a change in total fluorescence; inactive = total fluorescence flat and polarisation flat or rising; no compound was filed as active; the % refers to the polarisation; negative = inhibition;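 note: % of control where 0% means no effect; inhibitors lower the polarisation; unlabelled MLL peptide was the positive control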
gsp agonist: agonists of gsp mutant (McCune-Albright syndrome). gsp mutant cells, cAMP HTRF, 30 min; control for the full effect not named in the record. Potency, µM (titrated, usually from 76.9 µM), for inactives: at the highest dose activation (cAMP increase), hits mostly activators. 0.13% of 340,000 active. AID 624287; active = well fitted activation curve with a large enough effect; inconclusive = small, poorly fitted or top-dose-only effect, or another doubt; inactive = no such curve, though single readings can be large or run the other way; cell line not stated here;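 note: phosphodiesterase inhibitor Ro 20-1724 added with compounds to block cAMP breakdown; potency is the fitted concentration of half-maximal effect; nearly all actives have a fitted effect of over 60% in size; about a fifth of the inactives were tested at one dose only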
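Cells stably selected in G418 were plated at 2000/well, grown 16-24 hr, then given compounds in DMSO with the PDE inhibitor […] (300 uM solution added) for 30 min at 37C; cAMP was read by HTRF.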
D2 ag: human D2 receptor agonism in beta-arrestin assay. P14416. DiscoveRx PathHunter D2 beta-arrestin, luminescence, 90 min; 100% = 57 uM dopamine signal. activation, % (no concentration beside the values). 0.084% of 360,000 active; in the data active = activation above about 40%; inconclusive = about 15% to 40%; inactive = below about 15%; note: compound concentration not given in the record; the text of the record calls up to 30% inactive
Target sequence (P14416 whole entry, looked up): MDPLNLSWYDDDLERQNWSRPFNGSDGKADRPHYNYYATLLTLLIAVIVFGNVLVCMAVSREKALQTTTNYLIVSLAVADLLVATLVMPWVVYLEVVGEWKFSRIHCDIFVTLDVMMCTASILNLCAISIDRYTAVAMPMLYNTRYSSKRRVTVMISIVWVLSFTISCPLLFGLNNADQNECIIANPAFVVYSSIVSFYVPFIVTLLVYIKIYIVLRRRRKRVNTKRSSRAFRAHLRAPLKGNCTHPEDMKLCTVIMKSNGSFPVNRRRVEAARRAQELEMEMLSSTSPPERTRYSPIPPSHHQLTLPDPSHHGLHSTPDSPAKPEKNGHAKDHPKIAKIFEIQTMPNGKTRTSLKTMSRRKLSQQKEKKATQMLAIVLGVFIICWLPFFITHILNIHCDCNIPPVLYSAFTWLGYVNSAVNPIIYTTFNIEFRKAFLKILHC
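Agonist mode: compounds alone added to overnight-plated D2 PathHunter cells for 90 min at 37 C, with 57 uM final dopamine (EC100) defining full response. Beta-arrestin recruitment detected by chemiluminescent reagent, read after 1 h at ambient temperature.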
gsp antag: gsp mutant antagonism | gsp-mutant cells, cAMP HTRF, 30 min; control for the full effect not named in the record | Potency, µM (highest dose often 76.9 µM), for inactives: at the highest dose activity change, negative = inhibition, usual class: inhibitors | 0.4% of 340,000 active; active = falling curve of any shape with a large fitted effect; inconclusive = falling curve, mostly with a smaller effect; inactive = flat or rising curve; cell line not stated here;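 note: intracellular cAMP measured with PDE inhibitor Ro 20-1724 present during compound exposure; potency is the fitted concentration of half-maximal effect; % is set by controls: 0 for no effect and ±100 for the full control effect; nearly all actives have a fitted effect of over 65% in size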
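Cells in G418 medium, seeded 16-24 h, 37C; buffer exchange to DPBS + 1 mM CaCl2, 0.5 mM MgCl2, 0.05% BSA; cpds in DMSO + […] (300 uM stock), 30 min 37C; HTRF cAMP detection.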
PINK1 expr mod: changes PINK1 expression; PINK1 immunofluorescence, high-content cytometry, 24 h; Potency, µM (top dose mostly 76.6 µM), without a hit: top-dose activation (PINK1 increase), hits mostly activators; 0.2% of 410,000 active; AID 624263; active = well fitted activation curve with a large enough effect; inconclusive = small, poorly fitted or top-dose-only effect; inactive = flat fitted curve, though single readings scatter; cell line not stated here;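 note: potency is the fitted concentration of half-maximal effect; % of control where 0% means no effect; nearly all actives have a fitted effect of over 65% in size; a mitochondrial uncoupler was the plate control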
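Fluorescence from anti-PINK1 antibody, together with nuclear and cell stains, was scanned on a laser-scanning cytometer. Before staining, stable-line cells were incubated 24 hours with compounds at 5 concentrations; primary antibody 12 h at 10 degrees C.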
ClpP mod: qHTS Assay for Activators of ClpP. purified B. subtilis ClpP, FRET peptide cleavage, 20 min. 1.9% of 340,000 active. ATP-dependent Clp protease proteolytic subunit (Bacillus subtilis (strain 168)), P80244. Potency, µM (top dose mostly 57.5 µM), for inactives: top-dose activity change, negative = active; active = well fitted falling curve with a large enough effect; inconclusive = small, poorly fitted or top-dose-only effect; inactive = no such curve, though single readings can be large or run the other way; note: potency is the fitted concentration of half-maximal effect; the source files actives as falling curves though it sought activators and does not explain the sign; nearly all actives have a fitted effect of over 65% in size; many hits overshoot -100%
Target sequence (P80244 whole entry, looked up): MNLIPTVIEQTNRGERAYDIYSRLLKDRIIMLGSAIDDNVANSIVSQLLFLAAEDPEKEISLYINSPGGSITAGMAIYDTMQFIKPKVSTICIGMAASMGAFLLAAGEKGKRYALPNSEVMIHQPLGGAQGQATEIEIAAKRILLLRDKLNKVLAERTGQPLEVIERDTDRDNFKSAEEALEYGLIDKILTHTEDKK
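FRET quenching reversal measured ClpP activation: 10 microg/mL B. subtilis ClpP at pH 8 with the FRET-FV decapeptide, read at 430 nm after 320 nm excitation. The 20-min minus 0-min signal was scaled between DMSO/no-enzyme wells and ADEP (5.8 microM final).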
Starred values were filed as active, the others as inactive; ? = inconclusive; / = no result given; & = joins results of further samples; ! = repeats disagree; [ ] = remark or other dose.

Molecule	D2 ag	gsp agonist	Sfp PPTase inh	PINK1 expr mod	gsp antag	Menin-MLL FL inh	ClpP mod
O=c1c2[nH]c3ccccc3c2ncn1Cc1cccnc1	0.2	28%	11%	0.5%	0%	0.4	?
O=C1NC(c2ccc(Br)cc2)Oc2ccccc21 (configuration not stated)	-5.2	-4%	23%	2.9%	2%	0.7	?
Cc1cc(C)c(-c2c(O)c3c(n(C)c2=O)CC(C)(C)CC3=O)c(C)c1	-3.9	-5%[15.4 µM]	6%	5.8%	9%	1.1	0.7%
COc1ccccc1NC(=O)C1C2C=CC3(CN(Cc4cccnc4)C(=O)C13)O2 (configuration not stated)	-1.6	9%	21%	0.0%	1%	0.5	0.7%
COc1cc(NC(=O)CN2C(=O)c3ccccc3S2(=O)=O)c(OC)cc1Cl	0.5	?	-2%	1.2%	-19%	-2.9	-3.3%
CCCCN(C(=O)C1=NN(c2ccccc2)C(=O)CC1)c1c(N)n(CC(C)C)c(=O)[nH]c1=O	1.3	-15%	/	1.0%	6%	/	-3.6%
COc1ccc([C@@H]2[C@@H]3C(=O)N(C(C)(C)C)C(=O)[C@@H]3[C@]3(CC(C)C)C(=O)N(c4cccc(F)c4)C(=O)N23)cc1	-3.1	/	/	1.1%	-1%	/	3.0%
O=C(Cc1cccs1)Nc1cccc([N+](=O)[O-])c1	-5.6	14%[15.4 µM]	-5%	0.4%	-13%	5.5	/
CCCN(C(=O)c1cc(C)ccc1C)c1c(N)n(Cc2ccccc2)c(=O)[nH]c1=O	-0.5	-3%	/	0.3%	10%	/	-0.7%
CCCN(CCC)S(=O)(=O)c1ccc(C)cc1	-4.1	/	9%	-0.6%	-3%	-0.3	-0.2%
COc1ccc(CNC(=O)CNC(=O)c2c(C)nn(C)c2Cl)cc1	-3.9	23%	18%	0.9%	2%	-3.0	-1.3%
Cc1occc1-c1nnc(SCC(=O)N2CC(=O)Nc3ccccc32)n1CC(C)C	-2.6	0%	5%	1.0%	15%	-0.8	-3.9%
CCNC(=O)C1CCCN(C(=O)c2cc(F)cc(F)c2)CC1 (configuration not stated)	-5.2	/	/	0.8%	/	/	0.3%
O=C1C2C3C=CC(C3)C2C(=O)N1c1nc2ccccc2s1 (configuration not stated)	-3.4	19%	27%	0.4%	5%	6.7	1.2%
COc1ccc(C(=O)Nn2c(CC(C)C)nc3cc(Cl)ccc3c2=O)c(OC)c1	2.8	-6%	27%	2.5%	-23%	1.6	/
CCOC(=O)c1ccc(-c2ccc(/C=N/NC(=O)CN(c3ccccc3Br)S(C)(=O)=O)o2)cc1	-2.2	-5%	-4%	0.2%	-11%	7.9	18µM*
COc1cccc(C(=O)Nc2ccc(NC(=O)c3ccco3)cn2)c1	-4.6	15%	4%	0.5%	1%	2.9	14µM*
CCn1c(Cc2ccccc2)nnc1SCC(=O)N1CCCC1=O	-7.5	-8%	9%	-1.1%	-4%	0.1	-0.2%
COc1ccccc1NC(=O)COc1ccc(/C=N/NC(=O)CSCc2cc(C)cc(C)c2)cc1	-2.4	-56%[inhibitor]	?	3.2%	0%	5.4	-21%
O=[N+]([O-])c1ccc(/C=N\NS(=O)(=O)c2ccc(F)cc2)o1	-1.1	-16%	?	1.4%	4%	11	-3.8%
Cc1sc2nc(CN3CCOCC3)nc(N3CCC(C(N)=O)CC3)c2c1C	-3.0	15%	-1%	-2.0%	9%	3.9	-1.5%
Cn1nc(C(=O)N2CCN(c3ccc(F)cc3)CC2)c2c1-c1ccccc1S(=O)(=O)C2	-2.7	-59%[inhibitor]	11%	0.9%	-8%	/	-1.9%
CC(C)N(C(=O)CSc1nnnn1-c1ccc2c(c1)OCO2)C(C)C	-0.9	12%	-1%	-0.9%	-4%	0.4	/
Cc1cc(C)cc(NC(=O)Cn2nnc(C(=O)NCc3ccccc3Cl)c2N)c1	1.9	-6%	14%	2.2%&4.9%	-3%	0.1	2.1%&0.8%
CCCC(C)NC(=O)CSc1nnc2ccccn12 (configuration not stated)	-1.1	20%[15.4 µM]	8%	0.1%	/	-2.1	/
COc1ccc2c(c1OC)C(=O)NC(C)=C(C(=O)OC(C)(C)C)C2O (configuration not stated)	0.0	0%	-7%	/	-18%	-3.8	-0.2%
COC(=O)C1C(=O)OC(C)(C)C1C(C)C(=O)c1ccc(C)cc1C (configuration not stated)	-1.5	6%[15.4 µM]	18%	1.3%	/	-0.1	/
CCOc1ccc(NC(=O)CN(C)S(=O)(=O)c2cccc3cccnc23)cc1	1.8	?	5%	-1.0%	-8%	-2.6	0.8%
CC1CCc2sc(C(=O)NCCCn3ccnc3)cc2C1 (configuration not stated)	-3.1	2%	8%	0.6%	0%	/	-5.5%
CCOC(=O)C(C)On1c(SC(C)C(=O)OCC)nc2ccccc2c1=O (configuration not stated)	-3.0	0%	5%	0.3%	4%	2.6	-1.7%
CSCCC(NS(=O)(=O)c1ccc(C)cc1)C(=O)NC1CCCCCC1 (configuration not stated)	-3.1	-4%	/	1.8%	13%	/	-1.8%
O=C(CSc1ncnc2ccccc12)N1CCNC1=O	-2.0	?	/	0.9%	8%	/	-0.1%
CCN1C(=O)c2c(C)nc3ccccc3c2C1=O	-1.8	1%	16%	6.7%[38.3 µM]	1%	6.5	-0.1%
COc1ccccc1NC(=O)OC(C)c1ccc(Cl)cc1 (configuration not stated)	-4.2	-4%[15.4 µM]	-28%	7.1%	-4%	0.0	/
O=C(C1=C[C@H](c2ccc(C(F)(F)F)cc2)C[C@H](OCc2ccc(CO)cc2)O1)N1CCN(Cc2ccccc2)CC1	10	-62%[inhibitor]	-3%	-0.4%	-4%	?	-2.8%
Cc1ccc(NC(=O)CSc2nc3[nH]ncc3c(=O)[nH]2)cc1Cl	-3.2	-10%[15.4 µM]	/	3.7%	6%	/	/
O=C(C[n+]1cc(-c2ccc(Cl)c(Cl)c2)n2c1CCC2)OCc1ccccc1	-5.4	-6%	4%	-2.2%	1%	1.9	-3.8%
CC(=O)NCCC(=O)Nc1cc(S(=O)(=O)N2CCCCC2)ccc1N1CCCCC1	0.5	-15%	/	5.3%	-7%	/	0.0%
CCOC(=O)N1CCN(S(=O)(=O)c2ccc(Br)cc2)CC1	-2.1	-12%	13%	0.3%	3%	3.0	0.9%
O=C1c2ccccc2S(=O)(=O)N1CC(O)Cn1ccc2ccccc21 (configuration not stated)	3.6	-4%	-7%	-0.4%	7%	?	0.6%
COc1cccc(OC)c1C(=O)Nc1ccccc1N1CCCC1	-5.1	-2%	-4%	0.9%	-25%	1.0	1.2%
O=C(CSC1=NS(=O)(=O)c2ccccc2N1)c1ccccc1	-1.1	-10%	/	-1.3%	-17%	/	-0.4%
O=C(N=C1SC2CS(=O)(=O)CC2N1c1ccc(Cl)cc1Cl)C1CCCO1 (configuration not stated)	-0.6	-32%[inhibitor]	0%	0.2%	9%	0.9	-1.7%
CN(C)CCNc1ccc2nnn3c4ccc(O)cc4c(=O)c1c23	-2.8	?	/	-1.5%	-3%	/	0.3%
CCN1CCCC1CNCc1cc(OC)c(OC)c(OC)c1 (configuration not stated)	-0.1	15%	-9%	2.3%[38.3 µM]	12%	4.2	2.4%
Cc1cc(C)c(C#N)c(N2CCN(c3ccccc3)CC2)n1	-0.5	-25%	-2%	-0.8%	-5%	0.3	-16%
COCCNc1nc(Oc2cncc(Cl)c2)c2sccc2n1	-2.9	/	/	-1.2%	/	/	-23%
N#Cc1nc(-c2ccc(OCc3ccc(Cl)cc3)cc2)oc1N1CCC(C(N)=O)CC1	-3.0	-22%	-6%	1.6%[38.3 µM]	-2%	0.6	5µM*!
c1ccc(C2=Nc3ccccc3NC(c3ccccc3)C2)cc1 (configuration not stated)	1.0	1%	-28%	25%[38.3 µM]	-6%	2.9	?
Cc1ccc(C(C)(C)C)c(OCCN2CCCC2)c1	-2.7	-13%	-23%	5.3%	18%	1.2	1.5%
CSc1ccc(CN2CCC2(C)C(=O)NC2CCN(Cc3ccccc3)CC2)cc1 (configuration not stated)	4.1	/	/	0.5%	/	/	1.5%
COc1ccccc1-c1noc(CSc2nc(N)cc(=O)[nH]2)n1	-2.7	5%[15.4 µM]	-2%	1.3%	-8%	-1.8	/
CCN(C(=O)CSc1nc2ccc(OC)cc2[nH]1)c1c(N)n(Cc2ccccc2)c(=O)[nH]c1=O	-1.8	-20%	/	0.1%	6%	/	0.5%
Cc1nc2sc(C(c3ccccc3)N3CCN(CCO)CC3)c(O)n2n1 (configuration not stated)	-1.7	21%	13%	-0.6%	4%	6.5	0.8%
CCc1nc2oc(C(=O)c3ccccc3)c(N)c2c2c1COC(C)(C)C2	-2.1	-30%[inhibitor]	6%	7.3%	-1%	-0.1	-4.9%
COc1ccc(NC(=O)CN(C)CC(=O)Nc2cccc(F)c2)cc1S(=O)(=O)N1CCCCC1	-4.9	-33%	/	4.4%	-10%	/	1.3%
CC(=O)N1CCOc2ccc(S(=O)(=O)NCC3CCC(C(=O)NCCC(C)C)CC3)cc21 (configuration not stated)	2.2	-96%[inhibitor]	12%	-1.1%	1%	-1.3	0.9%
Fc1ccccc1CSc1ccc(-c2ccco2)nn1	-7.2	-8%[15.4 µM]	56µM*	-0.4%	1%	-2.9	/
C[C@@H]1COC(=O)[C@@H](Cc2ccc(F)cc2)C/C=C\C[C@H](CC(=O)N(CCO)Cc2ccccc2)C(=O)N1	-2.7	/	/	0.5%	-6%	/	1.3%
O=C(c1cc2ccccc2cc1O)N1CCN(c2ccccn2)CC1	-5.5	9%	6%	3.5%	5%	-1.4	/
CC(=O)C1=C(O)C(=O)N(c2cccc(C(=O)O)c2)C1c1ccc(F)cc1 (configuration not stated)	-5.7	11%	-15%	1.7%	5%	-0.5	-26%

Compounds were not picked by outcome; any-hit rate near 5.1%.
